# Screens as filed in PubChem.
# FEN1 inhibitor = qHTS Assay for the Inhibitors of Human Flap endonuclease 1 (FEN1); P39748; Recombinant FEN1 flap cleavage, fluorescence, 15 min; Potency, µM (titrated, usually from 114 µM), for inactives: at the highest dose activity change, negative = inhibition, actives largely listed as inhibitors; 390,000 tested, 0.35% active; AID 588795, 2011; also: nearly all actives have a fitted effect of over 65% in size
# Target sequence (P39748 whole entry, looked up): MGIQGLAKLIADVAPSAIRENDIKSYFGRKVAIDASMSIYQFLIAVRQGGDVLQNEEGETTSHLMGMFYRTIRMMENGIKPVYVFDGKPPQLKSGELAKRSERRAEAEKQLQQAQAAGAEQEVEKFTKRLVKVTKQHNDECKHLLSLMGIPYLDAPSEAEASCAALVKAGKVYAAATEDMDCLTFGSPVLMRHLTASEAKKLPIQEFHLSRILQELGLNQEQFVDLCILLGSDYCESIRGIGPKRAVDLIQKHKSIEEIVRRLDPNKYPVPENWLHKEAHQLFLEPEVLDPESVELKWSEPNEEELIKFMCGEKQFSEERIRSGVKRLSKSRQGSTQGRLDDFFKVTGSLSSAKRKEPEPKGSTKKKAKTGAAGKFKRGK
#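 FEN1 at 10 nM, compound pretreatment for 15 min (room temperature), 50 nM final substrate to initiate; endpoint reads at 0 and 15 min; DMSO-only plates used as vehicle background.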
# N370S GC = qHTS Assay for Inhibitors and Activators of N370S glucocerebrosidase as a Potential Chaperone Treatment of Gaucher Disease | Lysosomal acid glucosylceramidase (Homo sapiens), P04062 | N370S GC spleen homogenate, 4MU-glucoside fluorescence | Potency, µM (titrated, usually from 59.4 µM), without a hit: top-dose activity change, negative = inhibition, usual class: inhibitors | 330,000 tested, 0.092% active | AID 2101, 2009;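 also: 0% = full enzyme activity and -100% = no enzyme basal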
# * marks the source's active call; other numbers are inactive results; ? = inconclusive; / = not tested or not shown; & = joins results of further samples; [ ] = dose if it differs, or a comment. Calls follow the shape of the dose curve; as a rule, active = well fitted curve in the direction sought with a large enough effect; inconclusive = small, poorly fitted or top-dose-only effect, or another doubt; inactive = no such curve, though single readings can be large; an effect the other way counts as inactive or inconclusive. Unless noted, % is scaled to controls: 0 for no effect and ±100 for the full control effect; potency is read from the fitted curve at half-maximal effect. This is a subset, and most or all hits are left out here.
no.	mol	N370S GC	FEN1 inhibitor
1	O=C(COc1cccnc1[N+](=O)[O-])Nc1ccc(Cl)c(S(=O)(=O)N2CCOCC2)c1	-4%	-8%
2	CC1CCN(C(=O)COC(=O)CCCN2C(=O)c3cccc4cccc(c34)C2=O)CC1	-5%	1%
3	COc1ccc(NC(=O)COc2ccccc2C(=O)NCC(c2ccccc2)N(C)C)cc1Cl (centres undefined)	-5%	-5%
4	O=C(COC(=O)c1cc(S(=O)(=O)N2CCOCC2)ccc1O)Nc1cc(S(=O)(=O)N2CCCC2)ccc1Cl	-14%	13%
5	CCC(=O)Nc1cc2c(cc1C(=O)CC)OCCO2	-3%	4%
6	O=C(COC(=O)/C=C/c1ccc(Cl)cc1)Nc1ccccc1	4%	4%
7	O=C(COC(=O)C1=COCCO1)NCc1ccc(Cl)cc1	-19%	-3%
8	Fc1ccc(NC(=S)Nc2ccccc2N2CCOCC2)cc1Cl	-15%	-11%
9	COc1ccc(N(CC(=O)Nc2cccc(C)c2C)S(=O)(=O)c2c(C)n[nH]c2C)cc1	0%	3%
10	O=C(COC(=O)CCS(=O)(=O)c1ccc(Cl)cc1)NCCc1ccccc1	25%	4%
11	Nc1ncnc2c1nc(Br)n2[C@@H]1O[C@@H]2COP(=O)(O)O[C@H]2[C@H]1O	/	13%
12	OC(c1cc(C(F)(F)F)nc2c(C(F)(F)F)cccc12)C1CCCCN1 (centres undefined)	?	9%
13	Cc1cc(N2CCN(C(c3ccccc3)c3ccc(Cl)cc3)CC2)n2ncnc2n1 (centres undefined)	11%	-22%
14	CCOC(=O)N1CCN(C(=O)CN(C2CCCCC2)S(C)(=O)=O)CC1	2%	18%
15	CCOC(=O)c1cnc(SCC(=O)Nc2cc(OC)ccc2OC)nc1N	8%	4%
16	CC(=O)N1CCOc2ccc(S(=O)(=O)N3CCC(C(=O)Nc4ccc(C)cc4)CC3)cc21	0%	17%
17	COc1ccccc1NC(=O)N(Cc1ccccc1)c1ccccn1	27%	-14%
18	CCc1cccc(C)c1NC(=O)COC(=O)c1c2c(nc3ccccc13)/C(=C\c1cccs1)CCC2	4%	8%
19	CC(C)(C)C(=O)Nc1sc2c(c1C#N)CCCCC2	1%	2%
20	CCN(CC)C(=O)c1ccc2nc3ccccc3nc2c1	2%	-5%
21	Fc1cccc(CCN2CCNC[C@@H]2CC2CCCCC2)c1	/	3%
22	Cc1ccc(C(=O)COC(=O)CCS(=O)(=O)c2ccccc2)cc1[N+](=O)[O-]	/	-16%
23	CCCCNC(=O)c1cc2c(-c3ccc(Cl)cc3)nn(C)c2s1	10%	-3%
24	Cc1c(CNC(C)CCc2ccccc2)c(C(=O)O)c(C)n1Cc1ccc(F)cc1Cl (centres undefined)	/	13%
25	O=C(Nc1nc2cc3c(cc2s1)OCCO3)C1CCCCC1	-2%	-23%
26	CCOC(=O)c1ccccc1NC(=O)c1ccccc1N(C)S(C)(=O)=O	3%	-1%
27	CC(=O)c1sc(NC(=O)CN2C(=O)C3CC=CCC3C2=O)nc1-c1ccccc1 (centres undefined)	-7%	11%
28	CCOc1ccc(CNC(=O)Cn2nc(N3CCN(c4ccccc4)CC3)ccc2=O)cc1	/	6%
29	COc1ccc(Cn2nnnc2CN2CCOCC2)cc1	-1%	4%
30	Nc1cc(N)nc(SCc2ccccc2)n1	3%	-5%
31	Cc1ccc(CNCC(=O)Nc2cccc(S(=O)(=O)NC3=NCCCCC3)c2)cc1	-3%	-12%
32	Cc1cc(C)c2[nH]c(=O)c(CN(CC3CCCO3)C(=S)NCc3ccco3)cc2c1 (centres undefined)	3%	-5%
33	CC1CCCN(C(=O)COC(=O)c2cc(Br)ccc2O)C1 (centres undefined)	/	-6%
34	COc1ccc(C(C)=O)cc1CSc1nnc(-c2ccncc2)n1C	-8%	15%
35	CCn1c(=O)c(C(=O)Nc2cnccn2)c(O)c2ccccc21	-4%	/
36	CCc1cccc(NC(=O)C2CCN(c3ncnc4sc(C)c(C)c34)CC2)c1	/	-21%
37	N#C/C(=C/c1cn(-c2ccccc2)nc1-c1cccc(OCc2ccc(F)cc2)c1)C(=O)NCCCn1ccnc1	16µM*	-6%
38	O=C(CC1C(=O)N(c2ccccc2)C(=O)N1CCC1=CCCCC1)Nc1ccc(F)cc1 (centres undefined)	/	-22%
39	CCOC(=O)c1ccc(/C=C2/C=C(c3ccccc3)N(c3ccc(Cl)c(C(=O)O)c3)C2=O)cc1	7%	-22%
40	CCOc1ccccc1OCC(=O)Nc1ccc(S(=O)(=O)Nc2nc(C)cc(C)n2)cc1	6%	5%
41	Cc1cc(Nc2cccc(Cl)n2)n(-c2ccccc2)n1	-10%	-1%
42	N#Cc1cccc(NCC(=O)Nc2cccc(S(=O)(=O)N3CCCCC3)c2)c1	/	-7%
43	CC(C)(C)c1ccc(C(=O)NC(=S)Nn2cnnc2)cc1	7%	7%
44	Cc1ccc(-n2c(=O)c3ccc(C(=O)NCc4ccccc4Cl)cc3n(CC(=O)Nc3cccc(Cl)c3)c2=O)cc1	/	15%
45	Nn1c(SCc2cccc(Br)c2)nnc1-c1cccnc1	2%	-6%
46	CNC(=O)COc1cccc(C(=O)NCc2ccccc2)c1	6%	0%
47	CC1CC(=O)Nc2ccccc2N1C(=O)CSc1nnnn1C (centres undefined)	/	3%
48	C/C(=N\O)c1ccc2c3ccccc3n(C)c2c1	20%	-26%
49	COc1ccc(CNCCC(c2ccccc2)C2CCOC(C)(C)C2)cc1 (centres undefined)	-10%	-12%
50	Cc1ccc2c(c1)/C(=N/OC(=O)c1ccc(F)cc1)CCS2	-12%	8%
51	CC(=O)OCC(=O)[C@@]1(O)CC[C@H]2[C@@H]3CCC4=CC(=O)C=C[C@]4(C)[C@H]3[C@@H](O)C[C@@]21C	-5%	-5%
52	Cc1ccc(C)c(/C(O)=C2/C(=O)C(=O)N(CCN3CCOCC3)C2c2ccco2)c1 (centres undefined)	?	-19%
53	CC(C)CO/C(=N/S(=O)(=O)c1ccccc1)c1ccccc1	4%	4%
54	O=C(NCCCN1CCOCC1)c1cn(-c2ccccc2)nc1-c1cccs1	-15%	-2%
55	Cc1ccc(S(=O)(=O)N2CCOC2CNC(=O)C(=O)NCCCN2CCOCC2)cc1 (centres undefined)	2%	17%
56	CCc1ccc(NC(=S)Nc2cccc(OC)c2)cc1	14%	-7%

# Some values from above.
# Under FEN1 inhibitor, CC(C)CO/C(=N/S(=O)(=O)c1ccccc1)c1ccccc1 is listed with 4%
# Under N370S GC, CCc1ccc(NC(=S)Nc2cccc(OC)c2)cc1 is listed with 14%
# Under FEN1 inhibitor, Cc1ccc(S(=O)(=O)N2CCOC2CNC(=O)C(=O)NCCCN2CCOCC2)cc1 (centres undefined) is listed with 17%
# Under FEN1 inhibitor, O=C(NCCCN1CCOCC1)c1cn(-c2ccccc2)nc1-c1cccs1 is listed with -2%

# Continuation.
no.	mol	N370S GC	FEN1 inhibitor
57	Cc1cc(NS(=O)(=O)c2ccc(NC(NC(=O)C(C(F)(F)F)C(F)(F)F)(C(F)(F)F)C(F)(F)F)cc2)no1	-3%	-2%
58	COc1ccc(CN2C(=O)c3ccccc3C2C(=O)NCC2CCCO2)c(OC)c1 (centres undefined)	2%	-3%
59	CCCCOc1ccc(C2c3c(oc4ccccc4c3=O)C(=O)N2c2nc(C)c(C(=O)OCC)s2)cc1OC (centres undefined)	/	-15%
60	CCCCCSc1ncccc1C(=O)O	23%	-1%
61	N#C/C(=C/c1ccccc1[N+](=O)[O-])C(=O)NCc1ccco1	1%	-6%
62	CC(=O)Nc1cccc(NC(=O)CSc2nc(C)c(C)c(C)c2C#N)c1	8%	-3%
63	CCOc1nc(C)ccc1-c1noc(-c2ccccn2)n1	10%	1%
64	O=C1COc2ccc(C(=O)COC(=O)C3CCN(S(=O)(=O)c4cccs4)CC3)cc2N1	4%	-9%
65	COc1ccccc1/C=C/C=N/n1c(-c2ccccn2)n[nH]c1=S	2%	17%
66	COc1ccc2[nH]c(=O)c(CN(C(=O)c3cccnc3)c3cccc(C)c3)cc2c1	5%	1%
67	CCC(C)Sc1ccc(-c2nc3ccc(Cl)cn3c2NCc2ccccc2)cc1 (centres undefined)	/	-3%
68	Cc1csc(NC(=O)CS(=O)(=O)Cc2ccccc2)n1	-10%	16%
69	CCc1ccccc1NC(=O)CN(C)C(=O)COc1ccc(C)nc1[N+](=O)[O-]	4%	-3%
70	CC(=O)O[C@@H]1C(=O)[C@@]2(C)[C@H](O)C[C@H]3OC[C@]3(OC(C)=O)[C@@H]2[C@H](OC(=O)c2ccccc2)[C@@]2(O)C[C@H](OC(=O)[C@@H](O)[C@@H](NC(=O)c3ccccc3)c3ccccc3)C(C)=C1C2(C)C (stereo in doubt)	-14%[21.6 µM]	/
71	Cc1c(C)n(C)c2ccc(C(=O)NCCCN3CCN(c4ccc(F)cc4)CC3)cc12	-27%	-22%
72	Cc1cc(C)nc(NS(=O)(=O)c2ccc(NC(=O)c3ccc4c(c3)OCCO4)cc2)n1	-1%	11%
73	Cc1cc(Cn2nc(-c3ccccc3)cc2C(=O)NCc2cccs2)on1	1%	-16%
74	COc1ccc(OC)c(-n2cnc3cc(C(=O)NC4CCCCCC4)ccc32)c1	/	-13%
75	CCOc1ccc2cc(S(=O)(=O)N3CCOCC3)ccc2c1	3%	-6%
76	COc1ccc(NC(=O)C2CC(=O)N(C(C)C)C2)cc1 (centres undefined)	-17%	3%
77	Cc1cc(OCc2cc(C(=O)NCc3csc(C(C)C)n3)no2)cc(C)c1Cl	13%	13%
78	Cc1csc(NC(=O)CSC2=NS(=O)(=O)c3ccccc3N2)n1	1%	-3%
79	COc1ccc(OCCSc2ncccn2)cc1	6%	-1%
80	CCOCCOCCC(C(=O)OCC)P(=O)(c1ccccc1)c1ccccc1 (centres undefined)	7%	-5%
81	COc1cccc(NC(=O)CN(C)CC(=O)Nc2ccc(Cl)cc2[N+](=O)[O-])c1	7%	-4%
82	CCCCn1c2ccc(F)cc2c2nnc(SCCN3CCCCC3)nc21	2%	-18%&-21%
83	Cc1cc(C(=O)N2CCN(S(=O)(=O)c3ccc(C)c(C)c3)CC2)no1	1%	1%
84	O=C(Cn1cnc2c(nnn2Cc2ccccc2)c1=O)c1ccc(Cl)cc1	-2%	13%
85	CS(=O)(=O)N(CCc1ccccc1)CC(=O)N1CCN(Cc2ccccc2)CC1	10%	-3%
86	Cn1c(CCNC(=O)c2ccccc2)nc2cc(NC(=O)c3ccco3)ccc21	-14%	-2%
87	Cc1ccc(C(=O)NCCSc2ccc(Cl)cc2)cc1[N+](=O)[O-]	-12%	-11%
88	Cc1cccc(N(O)C(=O)Nc2cccc(Cl)c2)c1	-4%	8%
89	Cc1ccc(NC(=O)C2CCN(S(=O)(=O)c3cccc4nonc34)CC2)cc1	0%	5%
90	CCOc1ccc2nc(C)cc(Nc3ccc4c(c3)OCCO4)c2c1	4%	?
91	O=C(Nc1cccc([N+](=O)[O-])c1)N1CCc2ccccc2C1	-9%	-18%
92	O=S(=O)(NCc1ccccc1)c1ccc(S(=O)(=O)N(Cc2ccccn2)Cc2ccco2)cc1	2%	3%
93	CC(C)c1ccc(C(=O)NCCCN2CCN(CCCNC(=O)c3ccc(C(C)C)cc3)CC2)cc1	-18%	2%
94	CCOC(=O)c1cnn(-c2ccc(F)cc2)c1N	21%	-8%
95	CCc1ccc(CN2C(=O)c3ccccc3C2C(=O)NCc2cccnc2)cc1 (centres undefined)	6%	-4%
96	O=C(NCC1CCCO1)c1ccccc1NS(=O)(=O)c1cccc([N+](=O)[O-])c1 (centres undefined)	/	-14%
97	O=C(CN1CCCN(Cc2cccc(Cl)c2)S1(=O)=O)Nc1ccc2c(c1)OCCO2	/	-6%
98	CC(C)CN(CC(C)C)S(=O)(=O)N1CCC(C(=O)NC2CCCCCCC2)CC1	-3%	-15%
99	CCCS(=O)(=O)N1CCC(C(=O)NCCCN2CCCC2=O)CC1	-8%	10%
100	Cc1cc(C)c2c(C)[nH]nc2n1	3%	1%
101	Cc1cccn2c(=O)c(C(=O)NCCCN3CCCCC3C)c(O)nc12 (centres undefined)	-4%	15%&1%
102	CCC(C)N(C(=O)COC(=O)CN=C1NS(=O)(=O)c2ccccc21)C1CCS(=O)(=O)C1 (centres undefined)	/	-2%
103	CC(=O)c1cccc(N2C(=O)CC(N3CCN(S(=O)(=O)c4ccccc4F)CC3)C2=O)c1 (centres undefined)	/	-7%
104	O=C(N/N=C1\CCc2ccccc21)c1ccc(O)cc1	9%	4%
105	O=C(C1=C[C@@H](c2ccc(C(F)(F)F)cc2)C[C@@H](OCCCCO)O1)N1CCN(Cc2ccccc2)CC1	?	-17%
106	CCOc1ccc(C(=O)NCC(=O)OCCCC(=O)c2ccc(F)cc2)cc1OCC	/	2%
107	CCC(=O)N1CCN(c2ccc(NC(=O)c3ccccc3)cc2)CC1	3%	4%
108	CCN(CC)S(=O)(=O)c1ccc(NC(=O)CCC2CCCCC2)cc1	10%	2%
109	Cn1c(=O)cc(SCC(=O)Nc2ccc3c(c2)OCO3)c2ccccc21	1%	-12%
110	COC(=O)c1ccc(NC(=S)NCCc2ccccc2C)cc1	-2%	1%
111	FC(F)Sc1ccc(NC(=S)N2CCN(c3ccccn3)CC2)cc1	0%	2%

# 3 of the entries above in order of the FEN1 inhibitor value, rising.
item	mol	N370S GC	FEN1 inhibitor
105	O=C(C1=C[C@@H](c2ccc(C(F)(F)F)cc2)C[C@@H](OCCCCO)O1)N1CCN(Cc2ccccc2)CC1	?	-17%
109	Cn1c(=O)cc(SCC(=O)Nc2ccc3c(c2)OCO3)c2ccccc21	1%	-12%
106	CCOc1ccc(C(=O)NCC(=O)OCCCC(=O)c2ccc(F)cc2)cc1OCC	/	2%
